Screening results from PubChem.
Mtb growth: M. tuberculosis H37Rv growth inhibitors, H37Rv strain (AID 1626) | M. tuberculosis H37Rv growth inhibition; higher % means a stronger effect | inhibition, % at 10 µM, or IC50 in µM where a hit was titrated | actives 0.95% (n = 220,000);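 active = confirmed in a dose series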;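 also: bacteria incubated seven days before Alamar blue readout; 0% = bacteria only wells and 100% = bacteria with antibiotic wells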
Mtb bLac sens: beta-lactam sensitization of Mtb H37Rv, H37Rv; actives 0.27% (n = 330,000); M. tuberculosis H37Rv growth with meropenem, percent inhibition; hits of this screen are not shown here; inhibition, % at 25 µM;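 active = about 74% or more and at least 40 points above the plate without the antibiotic, then above 30% in a dose series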;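 also: growth measured after seven days incubation then overnight dye step; 0% = bacteria only wells and 100% = bacteria with antibiotic; twin plates without the antibiotic show which effects depend on it; some results filed as inactive read as strong as hits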
YopH inh: YopH tyrosine phosphatase inhibitors, primary screen, biochemical, fluorescence Ex485/Em525 | inhibition, %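 (about 10 µM by stock and volumes)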 | YopH tyrosine phosphatase [Yersinia enterocolitica] | actives 0.16% (n = 140,000);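 active = inhibition of 50% or more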;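 also: controls were vehicle for no effect and minimum signal wells for full effect; inactives centre near -20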
Arbovirus anti: antivirals against arbovirus infection, primary screen, cell-based, full library, 10K replicate subset | AID 1251, 2008 | inhibition, % at 10 µM | actives 0.37% (n = 200,000) | arbovirus infection cell-based antiviral screen;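 active = inhibition from about 30%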;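 also: bluetongue infection of BSR cells; cell survival read as ATP light after 72 h; 0% = infected wells without compound and 100% = uninfected wells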
RecA splice inh: Mtb RecA intein splicing inhibitors, primary screen, biochemical, fluorescence, HTS. actives 0.75% (n = 290,000). AID 2221, 2009. inhibition, %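 (about 9 µM by stock and volumes)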. cell-free RecA intein splicing. Protein RecA (Mycobacterium tuberculosis (strain ATCC 25618 / H37Rv)), P9WHJ3; in the data active = inhibition above about 30%;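 also: 0% = vehicle wells and 100% = reference inhibitor control wells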
Target sequence (P9WHJ3 whole entry, looked up, canonical isoform): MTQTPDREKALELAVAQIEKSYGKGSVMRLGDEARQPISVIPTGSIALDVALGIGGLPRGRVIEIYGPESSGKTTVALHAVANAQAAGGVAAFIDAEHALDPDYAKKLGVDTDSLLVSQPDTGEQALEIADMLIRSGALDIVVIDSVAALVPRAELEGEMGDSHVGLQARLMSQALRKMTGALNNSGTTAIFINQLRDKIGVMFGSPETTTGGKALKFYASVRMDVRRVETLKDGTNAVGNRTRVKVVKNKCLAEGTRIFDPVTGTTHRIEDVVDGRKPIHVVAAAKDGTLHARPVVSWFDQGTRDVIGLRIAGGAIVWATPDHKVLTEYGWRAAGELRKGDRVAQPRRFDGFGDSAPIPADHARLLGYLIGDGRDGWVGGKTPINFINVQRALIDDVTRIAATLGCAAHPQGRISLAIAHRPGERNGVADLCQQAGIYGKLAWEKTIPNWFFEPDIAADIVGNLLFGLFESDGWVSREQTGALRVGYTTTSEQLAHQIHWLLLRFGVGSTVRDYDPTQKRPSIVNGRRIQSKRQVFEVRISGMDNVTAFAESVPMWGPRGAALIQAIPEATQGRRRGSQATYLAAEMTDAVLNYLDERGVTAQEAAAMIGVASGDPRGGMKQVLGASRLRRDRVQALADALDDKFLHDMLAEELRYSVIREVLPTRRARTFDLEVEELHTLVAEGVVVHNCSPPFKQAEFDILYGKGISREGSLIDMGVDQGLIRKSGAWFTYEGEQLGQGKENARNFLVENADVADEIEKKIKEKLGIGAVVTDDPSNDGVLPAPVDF
Arbovirus anti repeat: second read-out of Arbovirus anti, no call of its own (marks repeat the call); inhibition, %; measured here: 10K subset replicate screen; many hits read low in the repeat;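 first of two repeat runs on a subset; 0% = infected and 100% = uninfected wells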
* = called active by the depositor; · = no result given. A portion of the library; rates above refer to the full screens.

SMILES	Mtb growth	Mtb bLac sens	YopH inh	Arbovirus anti	RecA splice inh	others
Cc1cc(C)cc(SCc2noc(C(=O)NCCC(C)C)c2C(=O)NCCC(C)C)c1	5%	-3	·	·	-3.1
CCOC(=O)c1c(O)c2ccccc2n(CC)c1=O	9%	11	·	11	-2.4
COc1ccc(CNc2nc3nc(C)c(Cl)c(C)n3n2)cc1	-2%	-2	·	·	-0.3
Cc1ccc(NC(=S)NC(NC(=O)c2ccccc2C)C(Cl)(Cl)Cl)c(C)c1 (centres undefined)	0%	8	-28	-23	13
C=C(C)c1cccc(C(C)(C)NC(=O)Nc2ccccc2OCC)c1	-4%	5	-37	-2	0.7
COc1cccc(Oc2ccc(C(F)(F)F)cc2N)c1	4%	-1	-18	4	-0.7
COc1ccc(NC(=O)C(=O)NNC(=O)COc2ccc(Cl)cc2)c(OC)c1	·	98	·	·	-4.1
CC1(c2ccc(OC(F)F)cc2)NC(=O)N(CC(=O)Nc2cccc(F)c2)C1=O (centres undefined)	·	-6	·	·	-2.5
COc1ccccc1/C=C\C=N\n1c(-c2ccc(Cl)cc2Cl)n[nH]c1=S	17%	12	-5	18	-1.2
COc1cc(OC)cc(-c2nnc(SCc3cccnc3)o2)c1	6%	-2	-53	2	-1.8
CCN(CC)C(=O)C(=O)Nc1cc(C(F)(F)F)ccc1Cl	7%	-10	-4	-6	-3.5
CCOc1nc2ccccc2cc1/C=C/C(=O)O	-8%	-5	·	0	-1.9
CC(=O)Nc1ccc(SCCCC(=O)c2ccccc2)cc1	·	6	·	·	-2.5
Cc1ccc(S(=O)(=O)CCC(=O)N2CCN(c3ccc([N+](=O)[O-])cc3)CC2)cc1	·	1	·	·	1.9
COc1ccc(CNC(=O)CCS(=O)(=O)Cc2ccc(C)cc2)c(OC)c1	10%	0	·	0	0.7
Cc1cc(C)nc(NCC(O)COc2ccccc2C)n1 (centres undefined)	-1%	7	-37	-1	-0.3
Cc1nccc(-c2cccc(NC(=O)c3ccccc3Cl)c2)n1	-7%	-15	·	·	1.6
Cc1ccc(NC(=O)COC(=O)c2cccnc2)cc1	·	1	·	7	1.0
Cc1onc(-c2ccccc2)c1C(=O)NCCc1ccncc1	·	0	·	·	1.6
COc1ccccc1CNC(=O)CSc1nc2c(oc3ccccc32)c(=O)n1CC1CCCO1 (centres undefined)	·	4	·	·	2.8
Cn1c(CNC(=O)c2ccccc2F)cc2ccccc21	·	4	·	·	-0.2
CC(=O)OCCOCn1cnn2c(=O)c(Br)c(C)nc12	-8%	-1	·	·	-12
COc1ccc(C2C(C(=O)N3CCC(C)CC3)c3ccccc3C(=O)N2C)cc1 (centres undefined)	-17%	3	-19	-4	1.8	Arbovirus anti repeat=-1
COc1cccc(/C=N/NC(=O)CN2CC(c3ccccc3)CC2=O)c1OC (centres undefined)	-4%	1	-20	-4	·
CCn1c(C)nc2cc(C(=O)NNC(=O)CCC3CCCCC3)ccc21	5%	-4	-26	1	0.1

No new results follow: entries from further up.
SMILES	Mtb growth	Mtb bLac sens	YopH inh	Arbovirus anti	RecA splice inh	others
COc1ccc(C2C(C(=O)N3CCC(C)CC3)c3ccccc3C(=O)N2C)cc1 (centres undefined)	-17%	3	-19	-4	1.8	Arbovirus anti repeat=-1
COc1cccc(/C=N/NC(=O)CN2CC(c3ccccc3)CC2=O)c1OC (centres undefined)	-4%	1	-20	-4	·
CCn1c(C)nc2cc(C(=O)NNC(=O)CCC3CCCCC3)ccc21	5%	-4	-26	1	0.1

Later entries.
SMILES	Mtb growth	Mtb bLac sens	YopH inh	Arbovirus anti	RecA splice inh	others
COc1ccccc1OCC#CCN1CCCC1	5%	40	·	0	-1.0
Nc1ccccc1SCC(O)Cn1ccc2ccccc21 (centres undefined)	·	8	·	·	1.3
COc1ccc(-c2c(C(C)=O)c(C)n(C)c2C)cc1	-9%	-5	-20	-7	-3.0
COC(=O)c1ccc2c(c1)NC1=C(C(=O)CC(C)(C)C1)C(c1ccncc1)N2 (centres undefined)	-5%	-9	-22	3	-0.9
O=C(CNC(=O)c1cccc(Cl)c1)Nc1ccc(Br)cc1C(=O)c1ccccc1	13%	53	-17	-29	15
COc1ccc(Cc2noc(CN3CCCC(C(=O)c4cccs4)C3)n2)cc1OC (centres undefined)	1%	-7	·	-2	·
CCOc1cc(N2CCOCC2)c(OCC)cc1NC(=O)Cn1cnc2c(=O)n(C)c(=O)n(C)c21	-3%	-5	·	4	0.3
CC1SCC(=O)N(CC(=O)NCCc2ccccc2)C1=O (centres undefined)	5%	-3	·	1	-0.8
O=C(Nc1ccc2nc(C3CC3)n(Cc3ccc(F)cc3)c(=O)c2c1)c1ccco1	1%	-7	-47	-18	0.8
Cc1ccc(-c2csc(NC(=O)C3CC(=O)N(Cc4ccco4)C3)n2)cc1 (centres undefined)	0%	7	·	20	4.5
CCC(=O)OCC(=O)Nc1ccc([N+](=O)[O-])cc1OC	16%	-1	·	-1	-1.3
Cc1cccc(NC(=S)N2CCCCCC2)c1C	·	-2	·	·	-0.9
COc1cccc(NC(=O)CSC2=NN3CCCC(=O)N=C3S2)c1	·	-3	·	·	1.9
O=C(Nc1cccc(-c2nc3ccccc3o2)c1)c1cccnc1	-12%	21	·	4	-3.4
Cc1cc(Cl)ccc1OCC(=O)N1CCN(C)CC1	-6%	-6	-21	2	-0.9
CCCN(C(=O)COC(=O)CC1CCCCC1)c1c(N)n(Cc2ccccc2)c(=O)[nH]c1=O	·	-9	·	·	1.1
O=C(NNS(=O)(=O)c1ccc(Cl)cc1)NC1CCCCC1	9%	-1	-35	-1	1.6
C=CCNC(=O)c1cc(Cl)ccc1[N+](=O)[O-]	-1%	8	-22	-5	-1.2
CCOc1cc(CO)cc(Br)c1OCC(=O)Nc1ccccc1C	4%	7	·	-4	0.1
CCCCCCCN1C/C=C\C(c2ccc(OC)cc2)N(Cc2ccc(F)cc2)C(=O)[C@H]1Cc1ccccc1 (some centres undefined)	5%	-10	·	·	-1.3
N#CCCN(C(=O)COC(=O)c1cccc(S(=O)(=O)Nc2ccc([N+](=O)[O-])cc2)c1)c1ccccc1	-9%	-1	-44	11	4.2
Cc1ccc(C)c(-c2csc(N)c2C(=O)OC(C)C)c1	4%	-7	-27	-8	10
Cc1cc(NC(=O)NC(C)(C(F)(F)F)C(F)(F)F)no1	-2%	2	·	·	-1.3
CCN(CC)C(=O)Oc1ccc(Cl)c2ccccc12	22%	6	-48	-2	·
O=C(O)c1ccc2cccc(Cl)c2c1O	-2%	-5	3	9	0.4

Continued, starting with the last 3 of the part before.
SMILES	Mtb growth	Mtb bLac sens	YopH inh	Arbovirus anti	RecA splice inh	others
Cc1cc(NC(=O)NC(C)(C(F)(F)F)C(F)(F)F)no1	-2%	2	·	·	-1.3
CCN(CC)C(=O)Oc1ccc(Cl)c2ccccc12	22%	6	-48	-2	·
O=C(O)c1ccc2cccc(Cl)c2c1O	-2%	-5	3	9	0.4
O=C(COC(=O)c1ccccc1Cl)NC(=O)NCc1ccccc1	6%	-2	-20	0	0.6
CC(=O)c1ccc(N2CCN(C(=O)Nc3cccc(F)c3)CC2)cc1	7%	1	·	4	-1.0
Cc1cc(Oc2ccccc2)nc(N2CCOCC2)n1	-4%	-8	-10	3	0.4
CCOCCCn1c(SCC(=O)N2CCOCC2)nc2ccccc2c1=O	·	0	·	·	0.0
CCCn1c(SCC(=O)N2CCCCC2)nc2c1c(=O)n(C)c(=O)n2C	·	-8	·	·	0.5
Cc1cc(=O)oc(C)c1C(=O)NCC(C)C	-5%	4	-18	2	·
Cc1c([N+](=O)[O-])cc(C(=O)Nc2ccc(NC(=O)c3ccco3)cc2)cc1[N+](=O)[O-]	·	3	·	·	-1.5
C=CCNC(=O)NC(=O)COC(=O)c1cccnc1SC	-2%	-7	5	5	1.1
Cc1ccc(CC(CC(=O)Nc2cccc(C(F)(F)F)c2)C(=O)O)cc1 (centres undefined)	3%	4	·	5	0.5
Cc1c(C(=O)N2CCCC2)sc(NC(=O)c2ccco2)c1C#N	-3%	-3	-43	1	0.0
O=C(NCc1ccc2c(c1)OCO2)C12CC3CC(CC(C3)C1)C2	-5%	-4	0	-1	0.0
Cc1ccc(C2=Nc3ccccc3N=C(c3ccc([N+](=O)[O-])cc3)C2)c(O)c1	1%	1	-10	0	0.4
CCOC(=O)C(C)Sc1cc(CS(=O)(=O)c2ccccc2)nc(-c2ccccc2)n1 (centres undefined)	-7%	14	-42	1	3.4
COc1ccccc1N(CC(=O)NC1CCCCC1)C(=O)CCC(=O)Nc1nccs1	·	-3	·	·	0.0
O=S(=O)(C=C(c1ccccc1)c1ccccc1)c1ccccc1	-5%	7	-22	8	14
CC(=O)Nc1cccc(C(=O)NC2CCCc3c2cnn3-c2ccc(C(C)(C)C)cc2)c1 (centres undefined)	·	97	·	·	-8.6
O=C(c1ncn[nH]1)N1CCN(c2nc(-c3ccccc3)cs2)CC1	3%	1	11	-6	-4.3
CC(=O)c1ccc(S(=O)(=O)Nc2cccc(-c3cn4c(n3)SCC4)c2)cc1	1%	3	·	3	-1.7
COCCCNC(=O)CSc1nc2ccccc2c(=O)n1CCCN1CCCCC1	·	-4	·	·	-5.4
Cc1c(C(=O)N2CCCCC2)c(S(=O)(=O)NCc2ccccc2Cl)c(C)n1C	·	-11	·	·	-2.1
Cc1ccc(S(=O)(=O)N/N=C2/CC(=O)CC(C)(C)C2)cc1[N+](=O)[O-]	-14%	-8	·	·	-4.9
CN1C(=O)N(C)C2(c3ccccc3)Nn3c(s/c(=C/c4ccccc4F)c3=O)=NC12c1ccccc1 (centres undefined)	·	-2	0	6	3.8
O=C(COC(=O)c1cc(Br)ccc1Cl)NC(=O)NCc1ccccc1	5%	87	-33	-2	2.2
COc1ccccc1CNC(=O)COC(=O)c1c(C)nn(-c2ccccc2)c1Cl	·	4	·	·	-0.6
Cc1ccc(S(=O)(=O)NCCc2c[nH]c3ccccc23)cc1	·	11	·	·	0.9

Compounds listed so far with an NH in an aromatic ring (4):
SMILES	Mtb growth	Mtb bLac sens	YopH inh	Arbovirus anti	RecA splice inh	others
COc1ccccc1/C=C\C=N\n1c(-c2ccc(Cl)cc2Cl)n[nH]c1=S	17%	12	-5	18	-1.2
CCCN(C(=O)COC(=O)CC1CCCCC1)c1c(N)n(Cc2ccccc2)c(=O)[nH]c1=O	·	-9	·	·	1.1
O=C(c1ncn[nH]1)N1CCN(c2nc(-c3ccccc3)cs2)CC1	3%	1	11	-6	-4.3
Cc1ccc(S(=O)(=O)NCCc2c[nH]c3ccccc23)cc1	·	11	·	·	0.9

Quoted at random: 4 records from the list, in no set order.
SMILES	Mtb growth	Mtb bLac sens	YopH inh	Arbovirus anti	RecA splice inh	others
COCCCNC(=O)CSc1nc2ccccc2c(=O)n1CCCN1CCCCC1	·	-4	·	·	-5.4
CCOCCCn1c(SCC(=O)N2CCOCC2)nc2ccccc2c1=O	·	0	·	·	0.0
CN1C(=O)N(C)C2(c3ccccc3)Nn3c(s/c(=C/c4ccccc4F)c3=O)=NC12c1ccccc1 (centres undefined)	·	-2	0	6	3.8
Cc1ccc(CC(CC(=O)Nc2cccc(C(F)(F)F)c2)C(=O)O)cc1 (centres undefined)	3%	4	·	5	0.5

Further structures.
SMILES	Mtb growth	Mtb bLac sens	YopH inh	Arbovirus anti	RecA splice inh	others
O=C(Nc1ccccc1)c1[nH]ncc1[N+](=O)[O-]	-7%	6	-1	6	-1.5
COc1cc(/C=N/NS(=O)(=O)c2ccc3ccccc3c2)ccc1OCc1ccc(C(=O)O)cc1	-3%	-2	·	·	3.2
Cc1[nH]nc(N)c1N=Nc1ccc(Br)cc1	21%	24	·	-23	3.3
COc1cc(CN2CCN(Cc3ccc(SC)cc3)CC2)cc(OC)c1O	-2%	1	·	0	-5.6
O=C(c1ccc2nc(-c3ccco3)c(-c3ccco3)nc2c1)N1CCC2(CC1)OCCO2	·	3	·	14	·
CCOc1ccc(N(CC(=O)NC2CCC(C)CC2)S(=O)(=O)c2c(C)noc2C)cc1 (centres undefined)	·	-10	·	·	-2.1
Cc1cccc(/C=N/NC(=O)NC23CC4CC(CC(C4)C2)C3)n1	9%	44	·	·	0.7
COC(=O)c1[nH]c2ccccc2c1NC(=O)c1ccccc1F	1%	31	·	·	-3.1
O=C(NCc1ccccc1)C1=C[C@@H](c2ccc3c(c2)OCO3)C[C@@H](OCCCCO)O1	-4%	1	·	·	1.1
CCC(NC(=O)NNC(N)=S)(C(F)(F)F)C(F)(F)F	4%	-13	·	·	-1.8
c1ccc(N=C(c2cccs2)N2CCOCC2)cc1	-3%	-2	-32	-3	-6.3
Cc1ccc(CNC(=O)CN2CCCC(C)C2)cc1 (centres undefined)	-12%	11	-10	-4	-1.4
COc1ccccc1CNS(=O)(=O)c1ccc2c(c1)CC(C)N2C(=O)C1CCC1 (centres undefined)	·	-2	·	·	-0.3
Cc1ccc(-c2csc(NC(=O)C3=COCCO3)n2)cc1C	·	93	·	·	5.2
CCN1C(=O)N(C)[C@@H](c2ccccc2)C(C(C)=O)=C1C	-3%	13	·	·	-1.0
